Source: PubChem BioAssay (Broad Institute)
NOMO-1 viab = STK33 inhibitor candidate reducing NOMO-1 cell viability; NOMO-1 AML viability, CellTiter-Glo luminescence, 72 h; inhibition, % (concentration not given with the values); 37,000 compounds, 7.5% hits;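 active = most replicates above 80%; inconclusive = exactly half above 80%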;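 also: wells of about 30 µL received 25 nL stock; 0% = median of vehicle wells and 100% = reference inhibitor level; the first replicate is given; inactives centre near 10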
An asterisk follows results filed as active; ? = inconclusive. These rows are one share of the data (hit frequency here may not be typical).

Molecule | NOMO-1 viab
C[C@@H]1O[C@@H](OCC2OC(OC3C(OC4C(Oc5c(-c6ccc(O)c(O)c6)oc6cc(O)cc(O)c6c5=O)OC(CO)C(O)C4O)OC(CO)C(O)C3O)C(O)C(O)C2O)[C@H](O)[C@H](O)[C@H]1O (some centres undefined) | -0.1
C[C@@H]1CN([C@H](C)CO)C(=O)Cc2cc(NC(=O)Nc3ccc(C(F)(F)F)cc3)ccc2O[C@@H]1CN(C)Cc1ccc(Cl)c(Cl)c1 | 79.3
C[C@@H]1CN([C@H](C)CO)C(=O)c2cccc(NC(=O)NC3CCCCC3)c2O[C@@H]1CN(C)Cc1ccc(Cl)c(Cl)c1 | 54.2
C[C@H]1CN([C@@H](C)CO)C(=O)c2cc(NC(=O)CCC(F)(F)F)ccc2O[C@H]1CN(C)C(=O)Nc1ccc(C(F)(F)F)cc1 | 15.7
COc1ccc(C)cc1S(=O)(=O)N(C)CC(=O)Nc1cccc(C(F)(F)F)c1 | -8.5
C[C@@H]1O[C@@H](O[C@H]2[C@H](O[C@H]3CC[C@@]4(C)C(CC[C@]5(C)C4CC=C4[C@@H]6CC(C)(C)CC[C@]6(C(=O)O[C@@H]6O[C@H](CO[C@@H]7O[C@H](CO)[C@@H](O)[C@H](O)[C@H]7O)[C@@H](O)[C@H](O)[C@H]6O)CC[C@]45C)[C@]3(C)CO)OC[C@H](O)[C@@H]2O)[C@H](O)[C@H](O)[C@H]1O (some centres undefined) | 28.1
Cc1c(C(=O)N2CCOCC2)[nH]c2ccc(OCc3ccccc3)cc12 | 34.1
CC1C(c2ccccc2)=[N+]([O-])C(C)(C)N1O (centres undefined) | -8.9
Cc1noc(C)c1S(=O)(=O)N(C)C[C@H]1Oc2ccc(NC(=O)Nc3ccc4c(c3)OCO4)cc2CC(=O)N([C@H](C)CO)C[C@H]1C | 17.9
C[C@H](CO)N1C[C@H](C)[C@H](CN(C)Cc2ccncc2)Oc2c(NC(=O)c3ccc(-c4nccs4)cc3)cccc2C1=O | -3.1
C[C@H](CO)N1C[C@H](C)[C@@H](CN(C)C(=O)Nc2ccc(F)cc2)Oc2ccc(NS(C)(=O)=O)cc2C1=O | -16.4
C=CCn1c2ccccc2c2nnc(SCC(=O)c3ccc(C)cc3)nc21 | 30.2
C[C@H]1CN([C@@H](C)CO)C(=O)Cc2cc(NS(=O)(=O)c3ccc(F)cc3)ccc2O[C@H]1CN(C)C(=O)Nc1ccc(C(F)(F)F)cc1 | 15.3
CS(=O)(=O)N(CC(=O)NC1CCCCCC1)c1cc(Cl)c(Cl)cc1Cl | 3.7
Cn1c(SCC(=O)Nc2ccc(Oc3ccc(Cl)cc3)cc2)nnc1-c1ccccc1O | 27.7
C[C@@H]1CN([C@H](C)CO)C(=O)Cc2cc(NS(=O)(=O)c3cn(C)cn3)ccc2O[C@@H]1CN(C)C(=O)Nc1cccc2ccccc12 | 26.4
COc1ccc(CNc2nc3ccccc3n2C)c(O)c1 | 15.4
C[C@@H]1CN([C@@H](C)CO)C(=O)Cc2cc(NC(=O)C3CC3)ccc2O[C@@H]1CN(C)CC1CCCCC1 | 15.7
COC(=O)c1cc(OC)c(OC)cc1NC(=O)COc1ccc2ccccc2c1Br | -16.9
Cc1cc2nnc(SCC(=O)c3cc(C)n(Cc4ccccc4)c3C)n2c2ccccc12 | 131.2*
Cc1noc(C)c1NC(=O)Nc1cccc2c1O[C@H](CN(C)S(C)(=O)=O)[C@@H](C)CN([C@H](C)CO)C2=O | 13.7
C[C@@H]1CN([C@H](C)CO)C(=O)Cc2cc(NC(=O)c3ccncc3)ccc2O[C@@H]1CN(C)C(=O)Nc1ccccc1 | 13.2
CC1=N/C(=C\c2sccc2C)C(=O)O1 | ?
Cc1sc(NC(=O)COc2ccc(Cl)cc2Br)c(C(N)=O)c1C | 14.5
C[C@H]1CN([C@@H](C)CO)C(=O)c2cccc(NC(=O)c3ccncc3)c2O[C@@H]1CN(C)CC1CCCCC1 | 16.1
CCOC(=O)c1c(NC(=O)COc2cccc(Cl)c2)sc(C)c1C | 55.6
CNC[C@@H]1Oc2c(NS(=O)(=O)c3ccccc3)cccc2C(=O)N([C@@H](C)CO)C[C@@H]1C | -1.2
CCSc1nc2ccccc2n1Cc1nc(N)nc(N(C)C)n1 | -0.4
C[C@H](CO)N1C[C@H](C)[C@@H](CN(C)CC2CCCCC2)Oc2c(NS(=O)(=O)c3cn(C)cn3)cccc2C1=O | -4.5
COc1cc(OC)c(C(=O)NCCCN2CCOCC2)cc1OC | 2.2
C[C@H]1CN([C@@H](C)CO)C(=O)Cc2cc(NC(=O)Nc3ccc4c(c3)OCO4)ccc2O[C@H]1CN(C)Cc1ccc(-c2ccccc2)cc1 | 92.3*
C[C@H]1CN([C@@H](C)CO)C(=O)Cc2cc(NC(=O)C3CC3)ccc2O[C@@H]1CN(C)Cc1ccc2c(c1)OCO2 | 1.7
O=C(CSC1CC(=O)N(c2ccc(Cl)cc2)C1=O)Nc1ccc(Cl)cc1 (centres undefined) | -7.1
Cc1cc(C(=O)Nc2cccc3c2O[C@H](CN(C)Cc2ccc(C(=O)Nc4ccccc4N)cc2)[C@H](C)CN([C@H](C)CO)C3=O)n(C)n1 | 126.7*
COc1ccc(NC(=O)N(C)C[C@@H]2Oc3ccc(N(C)C)cc3CC(=O)N([C@@H](C)CO)C[C@@H]2C)cc1 | -3.3
Cc1noc(C)c1NC(=O)N(C)C[C@H]1Oc2c(NC(=O)NC3CCCCC3)cccc2C(=O)N([C@H](C)CO)C[C@@H]1C | -7.1
CS(=O)(=O)N(CC(=O)O)Cc1ccc(Cl)cc1 | -14.5
COc1ccc(CN(C)C[C@@H]2Oc3c(NC(=O)NC(C)C)cccc3C(=O)N([C@@H](C)CO)C[C@@H]2C)cc1 | 19.9
O=C(CSc1ncnc2sc3c(c12)CCC3)Nc1ccc(Cl)cc1 | -17.8
COc1ccc(NC(=O)CSc2nc3ccccc3[nH]2)cc1Cl | 7.2
O=C(Cn1c(=O)oc2ccccc21)Nc1sc2c(c1C(=O)O)CCCC2 | -7.3
N#CC(C(=O)c1ccccc1Cl)=C1SCCCS1 | 114.4*
CCOc1ccc(NC(=O)Cn2cnc3scc(-c4ccc(C)cc4)c3c2=O)cc1 | 4.7
COc1ccc(S(=O)(=O)NCc2ccco2)cc1-c1nnc2c3ccccc3c(C)nn12 | 14.4
CC(C)NC(=O)N(C)C[C@H]1Oc2ccc(NC(=O)C3CC3)cc2C(=O)N([C@H](C)CO)C[C@@H]1C | -11.4
Cc1noc(C)c1NC(=O)N(C)C[C@H]1Oc2c(NC(=O)Nc3ccc(F)cc3)cccc2C(=O)N([C@H](C)CO)C[C@H]1C | 9.6
C[C@@H]1CN([C@@H](C)CO)C(=O)c2cccc(N(C)C)c2O[C@H]1CN(C)Cc1ccncc1 | -4.1
COc1ccc(S(=O)(=O)Nc2ccc3c(c2)C(=O)N([C@H](C)CO)C[C@@H](C)[C@@H](CN(C)Cc2ccc(C(F)(F)F)cc2)O3)cc1 | 108.4*
CCN(CCCc1ccccc1)CCCc1ccccc1 | 8.8
CC(=O)C(C)Sc1ncnc2sc(-c3ccccc3)cc12 (centres undefined) | 12.3
O=C1c2ccccc2C(=O)N1CCCc1nc2ccccc2c(=O)n1-c1nc2ccccc2s1 | 39.1
COc1ccc(S(=O)(=O)N(C)C[C@@H]2OCCCC[C@@H](C)Oc3ccc(NC(=O)Cc4ccccc4)cc3C(=O)N([C@H](C)CO)C[C@@H]2C)cc1 | 16.5
O=C(O)c1ccccc1Nc1ccccc1 | -1.4
C[C@H]1CN([C@@H](C)CO)C(=O)Cc2cc(NC(=O)c3ccncc3)ccc2O[C@H]1CN(C)C(=O)Nc1ccc(C(F)(F)F)cc1 | -4.2
COc1cccc(OCc2nc(-c3ccccc3)no2)c1 | 0.6
COc1cc(NC(=O)c2ccccc2)c(OC)cc1NC(=O)COc1ccc(Cl)cc1Cl | 45.4
Cc1ccc2nc(-c3ccccn3)cc(C(=O)Nc3sc4c(c3C(N)=O)CCc3ccccc3-4)c2c1 | 54.6
CNC[C@@H]1Oc2ccc(NS(=O)(=O)c3c(C)noc3C)cc2C(=O)N([C@H](C)CO)C[C@H]1C | 4.6
COc1cc(OC)c(O[C@@H]2O[C@H](COC(=O)c3cc(O)c(O)c(O)c3)[C@@H](O)[C@H](O)[C@H]2O)c(OC)c1 | 35.1
C[C@@H]1CCCCO[C@@H](CN(C)C(=O)Cc2ccccc2)[C@@H](C)CN([C@H](C)CO)C(=O)c2cc(NS(=O)(=O)c3ccc(Cl)cc3)ccc2O1 | 17.3

Next section:
Molecule | NOMO-1 viab
CNC[C@@H]1Oc2c(NC(=O)Nc3ccccc3)cccc2C(=O)N([C@@H](C)CO)C[C@@H]1C | 13.2
C[C@H]1CN([C@@H](C)CO)C(=O)c2cccc(NS(=O)(=O)c3cn(C)cn3)c2O[C@@H]1CN(C)Cc1ccc(C(=O)O)cc1 | -11.4
C[C@@H]1CN([C@@H](C)CO)C(=O)c2cccc(NC(=O)C3CC3)c2O[C@@H]1CN(C)Cc1ccc(C(=O)Nc2ccccc2N)cc1 | 128.1*
CCOC(=O)c1c(C)n(C)c2ccc(OCC(N)=O)cc12 | 12.8
Cc1noc(C)c1S(=O)(=O)Nc1ccc2c(c1)C(=O)N([C@H](C)CO)C[C@@H](C)[C@@H](CN(C)S(C)(=O)=O)O2 | 3.4
Cc1cc(C)cc(NC(=O)CSc2nc3ccccc3s2)c1 | -11.5
C[C@@H]1CCCCO[C@@H](CN(C)Cc2ccc(Cl)c(Cl)c2)[C@@H](C)CN([C@H](C)CO)C(=O)c2cc(NS(=O)(=O)c3cccs3)ccc2O1 | 118.3*
CC(C)NC(=O)Nc1cccc2c1O[C@@H](CN(C)CC1CCCCC1)[C@@H](C)CN([C@H](C)CO)C2=O | -0.6
Cc1cccc(NC(c2ccc([N+](=O)[O-])cc2)c2ccc3ccc(C)nc3c2O)n1 (centres undefined) | 111.8*
CC(=O)Nc1ccccc1NC(=O)CN(C)S(=O)(=O)c1ccc(C)cc1 | -1.5
COc1ccc(C2(CNC(=O)C3COc4ccccc4O3)CCCC2)cc1OC (centres undefined) | -2.2
COc1cccc(C(=O)NC(c2ccc([N+](=O)[O-])cc2)c2c(O)ccc3ccccc23)c1 (centres undefined) | 113.8*
Cc1ccc(N(C(C)C(=O)Nc2ccc(Oc3ccccc3)cc2)S(C)(=O)=O)cc1 (centres undefined) | 0.6
N#Cc1nc(-c2cccs2)oc1NCCCN1CCOCC1 | -1.1
C[C@@H]1CN([C@@H](C)CO)C(=O)c2cc(NC(=O)Cc3cn(C)c4ccccc34)ccc2O[C@H]1CN(C)C(=O)Nc1ccc(F)cc1 | 21.6

Part of the list above, as labelled records.
canonical_smiles: CC(C)NC(=O)Nc1cccc2c1O[C@@H](CN(C)CC1CCCCC1)[C@@H](C)CN([C@H](C)CO)C2=O
  NOMO-1 viab = -0.6

canonical_smiles: COc1cccc(C(=O)NC(c2ccc([N+](=O)[O-])cc2)c2c(O)ccc3ccccc23)c1 (centres undefined)
  NOMO-1 viab = 113.8*

(more compounds)
Molecule | NOMO-1 viab
C[C@H]1CN([C@@H](C)CO)C(=O)c2cccc(NC(=O)C3CC3)c2O[C@@H]1CN(C)S(=O)(=O)c1ccc(Cl)cc1 | 16.6
Cc1ccc(S(=O)(=O)Nc2ccc3c(c2)CC(=O)N([C@@H](C)CO)C[C@H](C)[C@@H](CN(C)Cc2ccc4c(c2)OCO4)O3)cc1 | 18.4
COc1cccc(NC(=O)COc2ccccc2C(=O)Nc2c(C)cccc2C)c1 | 32.3
CC(C)NC(=O)Nc1ccc2c(c1)C(=O)N([C@@H](C)CO)C[C@H](C)[C@@H](CN(C)C(=O)NC1CCCCC1)O2 | 9.7
Cc1cc(Cl)ccc1OC(C)C(=O)Nc1cccc(C(=O)O)c1 (centres undefined) | -22.5
COc1cccc(NC(=O)CSc2nc(N)c(-c3ccccc3)c(=O)[nH]2)c1 | -12.3
O=C(NC(=S)Nc1ccc(S(=O)(=O)Nc2nccs2)cc1)c1ccc(Br)o1 | -4.1
C[C@@H]1CN([C@H](C)CO)C(=O)Cc2cc(NC(=O)Nc3ccccc3)ccc2O[C@H]1CN(C)Cc1ccc(C(F)(F)F)cc1 | 118.4*
C[C@@H]1CN([C@@H](C)CO)C(=O)c2cccc(NC(=O)C3CCCCC3)c2O[C@@H]1CN(C)S(=O)(=O)c1ccc(F)cc1 | 30.5
C[C@H](CO)N1C[C@H](C)[C@@H](CN(C)C(=O)Nc2ccc3c(c2)OCO3)Oc2c(NC(=O)c3cnccn3)cccc2C1=O | 13.5
CCc1cccc2c(C#N)cn(CC(=O)NCC3CCCO3)c12 (centres undefined) | 41.1
Cc1ccc(-c2nc3ccccc3s2)cc1NC(=O)COc1ccccc1 | 27.7
C[C@H](CO)N1C[C@H](C)[C@H](CN(C)C(=O)Nc2ccc(F)cc2)Oc2ccc(NC(=O)Nc3cccc4ccccc34)cc2CC1=O | 1.8
C[C@@H]1CN([C@@H](C)CO)C(=O)Cc2cc(NC(=O)c3ccncc3)ccc2O[C@@H]1CN(C)Cc1ccc(Oc2ccccc2)cc1 | 55.2
C[C@H](CO)N1C[C@H](C)[C@@H](CN(C)S(=O)(=O)c2ccc(Cl)cc2)Oc2ccc(NS(=O)(=O)c3ccccc3)cc2C1=O | -0.5
Cc1ccc(S(=O)(=O)N(C)C[C@@H]2Oc3ccc(NC(=O)Nc4ccc(C(F)(F)F)cc4)cc3CC(=O)N([C@H](C)CO)C[C@@H]2C)cc1 | 126.1*

Quoted at random: three compounds from above
Molecule | NOMO-1 viab
COc1cccc(NC(=O)COc2ccccc2C(=O)Nc2c(C)cccc2C)c1 | 32.3
C[C@@H]1CN([C@@H](C)CO)C(=O)Cc2cc(NC(=O)c3ccncc3)ccc2O[C@@H]1CN(C)Cc1ccc(Oc2ccccc2)cc1 | 55.2
CCc1cccc2c(C#N)cn(CC(=O)NCC3CCCO3)c12 (centres undefined) | 41.1
